# Screening results as filed in PubChem BioAssay.
# PABP FP inh: PABP poly(A) RNA binding inhibitors, primary screen, biochemical, fluorescence polarization, uHTS. Polyadenylate-binding protein 1 (Homo sapiens), P11940. 290,000 tested, 1% active. inhibition, % at 35 µM;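 active means 50% or more with normal probe brightness, or confirmed in later tests; inconclusive means above 50% with abnormal brightness, or retests that disagree; inactive means below 50% or failed in later tests; about a fifth of its hits are not listed in these tables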;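 further: calls also rest on retests at 20 µM and on dose response follow-up; controls were probe without protein and protein plus probe with vehicle; some compounds called inactive have numbers as strong as hits; many hits fall short of the cut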
# Target sequence (P11940 whole entry, looked up): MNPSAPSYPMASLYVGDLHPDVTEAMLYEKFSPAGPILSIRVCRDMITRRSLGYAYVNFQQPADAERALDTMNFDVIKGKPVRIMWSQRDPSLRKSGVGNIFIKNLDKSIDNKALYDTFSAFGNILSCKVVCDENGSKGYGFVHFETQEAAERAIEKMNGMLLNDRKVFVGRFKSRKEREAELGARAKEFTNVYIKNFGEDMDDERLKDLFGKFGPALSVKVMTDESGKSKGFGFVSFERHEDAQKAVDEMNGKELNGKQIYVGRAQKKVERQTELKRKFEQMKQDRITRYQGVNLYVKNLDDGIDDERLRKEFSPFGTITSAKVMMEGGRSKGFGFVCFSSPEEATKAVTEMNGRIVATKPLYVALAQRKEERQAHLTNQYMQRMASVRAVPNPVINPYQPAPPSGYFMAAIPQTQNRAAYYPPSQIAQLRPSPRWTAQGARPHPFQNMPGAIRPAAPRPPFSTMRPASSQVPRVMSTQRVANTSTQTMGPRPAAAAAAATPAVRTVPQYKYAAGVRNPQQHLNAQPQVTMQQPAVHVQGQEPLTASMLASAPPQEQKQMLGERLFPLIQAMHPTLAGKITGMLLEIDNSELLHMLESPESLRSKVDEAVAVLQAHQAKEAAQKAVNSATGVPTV
# Rce1 inhib: yeast Rce1p protease inhibitors, primary screen, biochemical, fluorescence, cell-free homogeneous | calls only | CAAX prenyl protease 2 (Saccharomyces cerevisiae (strain ATCC 204508 / S288c)), Q03530 | 290,000 tested, 0.27% active | yeast membranes, quenched prenylated peptide cleavage fluorescence | AID 2563, 2010;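 active means fall in fluorescence gain of 50% or more versus controls, with final raw signal at or below 3038400; inconclusive means same 50% fall but final raw signal above 3038400; inactive means fall in fluorescence gain under 50%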;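 further: plate controls were neutral control wells for no effect and wells lacking membranes for full effect; tested at 10 µM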
# Target sequence (Q03530 whole entry, looked up): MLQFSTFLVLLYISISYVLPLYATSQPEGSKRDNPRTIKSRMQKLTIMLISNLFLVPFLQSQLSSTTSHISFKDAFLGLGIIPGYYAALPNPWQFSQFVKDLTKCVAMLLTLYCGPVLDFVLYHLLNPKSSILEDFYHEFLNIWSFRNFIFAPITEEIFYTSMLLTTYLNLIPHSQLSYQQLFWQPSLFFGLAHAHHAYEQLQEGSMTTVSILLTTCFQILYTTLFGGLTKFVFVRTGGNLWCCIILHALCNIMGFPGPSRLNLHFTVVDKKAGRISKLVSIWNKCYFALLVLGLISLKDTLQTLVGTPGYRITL
# MT1-MMP act inh: blockers of MT1-MMP proenzyme processing, primary screen, HT1080 RFP-PRO-GFP cells, GFP/RFP fluorescence; 360,000 tested, 0.061% active; Matrix metalloproteinase-14 (Homo sapiens), P50281; GFP/RFP ratio change, % at 20 µM; GFP/RFP ratio fluorescence, overnight; percent of plate control window, DMSO zero;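 active means GFP/RFP ratio change of at least 30% with cell ATP level not reduced by more than half and red fluorescence within 50% of control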; further: strong numbers were not always called active
#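 Test system: HT1080 cells expressing an RFP-PRO-GFP fluorescent reporter construct / Compound dosing: single-point 20 µM compound, 1% DMSO / Schedule: cells overnight before dosing, compound overnight, 37 °C, 5% CO2 / Evaluation: GFP/RFP fluorescence ratio / Control set: DMSO and RFP-L50D-GFP cell wells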
# Yeast UUG start: modulators of yeast start codon fidelity, primary screen, whole organism, S. cerevisiae, single point, plate reader; S. cerevisiae UUG-firefly luciferase reporter, luminescence/redox ratio; activity score, % at 18.7 µM; 350,000 tested, 0.13% active;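 active means replicate mean at a twofold rise or more, about +100% in these data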;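 further: firefly luciferase made from a UUG start codon reports start codon fidelity; reporter light over untreated wells divided by growth signal over untreated wells; some hits fall short of that in this replicate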
# Env fusion inh: inhibitors of HIV-1 Env-driven cell-cell fusion, primary screen, HeLa-JRFL effector, CEM21 target cells, luciferase; inhibition, % at 12.3 µM; 360,000 tested, 1.1% active;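 active means mean replicate inhibition score of at least 50 and every replicate individually at or above 50; inconclusive means only one of the two criteria met; inactive means mean below 50 and not all replicates reaching 50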;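 further: 0% = plate neutral controls and 100% = maraviroc near 300 nM; one replicate is shown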
# eIF4H inh: human eIF4H binding inhibitors, primary screen, translation initiation inhibitor project, biochemical, uHTS, fluorescence polarization. eIF4H fluorescence polarization binding assay. 290,000 tested, 0.94% active. inhibition, % at 35 µM. AID 2012, 2009. Eukaryotic translation initiation factor 4H (Homo sapiens), Q15056;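 active means 50% or more with normal probe brightness, or confirmed in later tests; inconclusive means above 50% with abnormal brightness, or retests that disagree; inactive means below 50% or failed in later tests; about a fifth of its hits are not listed in these tables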;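 further: calls also rest on retests at 20 µM and on dose response follow-up; 0% = protein and probe with vehicle and 100% = probe without protein; strong numbers were not always called active; many hits fall short of the cut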
# CSC inhib: cancer stem cell viability inhibitors, primary screen, luminescence | cancer stem cell-like cells viability | inhibition, % at 7.5 µM | 300,000 tested, 1.1% active | AID 2717, 2010;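 active means mean at 75% or more and at least half the replicates too; inconclusive means mean and replicates disagree; tested in HMLE shEcad cells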;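 further: 0% = median of negative and 100% = median of positive control wells; the first replicate is given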
# MT1-MMP act inh RFP: also measured in MT1-MMP act inh; calls as there; RFP signal change, %; measured here: RFP expression control read;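 0 = vehicle wells; hits needed this value within 50% of zero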
# Numbers without * were called inactive; i = inactive; ? = inconclusive; / = not tested or not shown; + = active, no number; & = joins results of further samples; [ ] = dose if it differs, or a comment.
SMILES,PABP FP inh,Rce1 inhib,MT1-MMP act inh,MT1-MMP act inh RFP,Yeast UUG start,Env fusion inh,eIF4H inh,CSC inhib
COCCN(Cc1ccccc1)C(=O)c1cc(-c2ccc(OC)c(OC)c2)nc2ccccc12,16,i,0,-4,-8,-2,10,-3
CC(=O)N1CCC(N(CCN2CCOCC2)C(=S)Nc2cc(C)ccc2C)CC1,-4,i,0,0,/,-22,3,-9
O=C(Nc1ccnn1C1CCN(Cc2ccc(CO)o2)CC1)c1ccccc1,5,i,-1,7,-8,-4,4,10
COc1cc(C2C(C#N)=C(C)NC3=C2C(=O)CC(C)(C)C3)ccc1O (centres undefined),6,/,2,0,/,/,1,-6
COc1ccc(NC(=O)CCC(=O)N/N=C/c2ccc([N+](=O)[O-])s2)cc1,-5,i,-3,-5,-14,/,14,/
COc1cccc(C(=O)Nc2nnc(C3CCCO3)s2)c1 (centres undefined),2,i,6,7,/,/,-2,-11
C/C(=N\NC(=O)c1ccco1)c1ccc(C(=O)O)s1,4,i,1,2,-12,2,-1,-1
Nc1nc(=O)n(C2OC(CO)C(O)C2O)cc1F (centres undefined),/,/,-7,-5,-4,62*,/,/
CC(=O)c1c(C)[nH]c(=S)c(C#N)c1-c1ccc(F)cc1,2,i,6,4,-28,-15,9,3
Cc1cc(OC(=O)c2ccc(OC(C)C)cc2)c([N+](=O)[O-])c(=O)[nH]1,-2,i,2,4,-20,6,-10,-17
Cc1ccc(CN(C)C[C@@H]2OCc3cnnn3CCCC(=O)N([C@@H](C)CO)C[C@H]2C)cc1,/,/,1,0,-11&2&-10,-18[16.7 µM],/,/
N#CC(C#N)=C1NC(N)=C(C#N)C(c2ccccc2)=C1C#N,30,+,-4,-1,/,-1,46,/
O=C(NNC1=Nc2cccc3cccc1c23)c1ccccc1Br,-9,i,-11,-12,/,-69,-2,9
Cc1ccc(C(O)c2ncc(-c3ccc4ccccc4c3)[nH]2)cc1 (centres undefined),/,/,-2,-9,10,-13,/,/
CCOc1ccc(C(=O)NCC(c2cccs2)N(C)C)cc1 (centres undefined),23,i,0,1,/,-9,-1,/
Cc1cn(-c2cc(C(=O)Nc3ccc(C)c(NC(=O)N4CCNC4=O)c3)cc(C(F)(F)F)c2)cn1,4,i,5&9,1&1,-14&-2,11,1,-12
CCOC(=O)c1sc(NC(=O)CSC(=S)N2CCOCC2)nc1C,-3,/,-2,-5,9,-2,-2,13
CCCCn1nc(C(=O)NC2CCCCC2)c2ccccc2c1=O,/,/,-3,4,-25,11,/,/
Cc1cc(-c2ccccc2)c2c3c(cn2n1)c(=O)n(C)c(=O)n3C,20,i,-2,-4,/,11,-12,-6
O=C(NCCCN1CCCC1)c1ccc(CS(=O)(=O)c2c(Cl)cccc2Cl)o1,8,i,2,3,-2,10,-11,-4
Cc1ccccc1OCC(O)CN (centres undefined),-5,i,-5,-3,-2,/,2,-2
CCCS(=O)(=O)N1CCN(C2Cc3ccccc3C2)CC1,7,i,-1,-1,/,-11,0,-3
Cc1ccc(/C=N\NC(=O)c2cncc(Br)c2)o1,-4,i,1,2,/,7,10,-27
CCCOC(=O)Cn1c(=O)c2cc3c(=O)n(CC(=O)OCCC)c(=O)c3cc2c1=O,-5,i,2,5,/,/,8,/
CN(CCOc1ccccc1)CCOc1ccccc1,8,i,-2,3,-17,1,-12,3

# (continued)
SMILES,PABP FP inh,Rce1 inhib,MT1-MMP act inh,MT1-MMP act inh RFP,Yeast UUG start,Env fusion inh,eIF4H inh,CSC inhib
CCOC(=O)C1CCCN(C(=O)c2cn(C)c3ccc(S(=O)(=O)N4CCCC4)cc3c2=O)C1 (centres undefined),6,/,2,4,-11,-45,1,/
S=c1nc[nH]c2c1sc1nc(N3CCOCC3)c3c(c12)CCCC3,-8,i,-5,-5,/,11,-6,32
S=C(NCc1ccccc1)Nc1cccc2cnccc12,6,i,-11,-29,-27,8,2,10
O=[N+]([O-])c1cc(/C=N/Nc2nc(N3CCOCC3)nc(N3CCOCC3)n2)ccc1Cl,-8,i,-3,-3,/,22,-6,1
Cc1ccc(S(=O)(=O)N2CCCCC2)cc1NC(=O)c1ccc2c(=O)n3c(nc2c1)CCCCC3,-3,i,/,/,/,8,-10,-16
Cc1ccc(-n2c(N)cc(=O)nc2SCC(=O)NC2CCCCC2)cc1C,-3,i,3,7,-4,-13,-7,-9
CCOc1cc(C(=O)CCC(=O)OCC(=O)NC(=O)NCC(C)C)ccc1O,2,i,7,7,-15,11,-3,-11
CC(=O)N1CCC2(CC1)NC(=O)N(c1ccccc1)N2,6,i,-1,0,/,-4,5,5
CCOC(=O)C1=C(COC(=O)Cc2ccc(OC)c(OC)c2)NC(=O)NC1C (centres undefined),/,/,5,7,3,2,/,/
C(=N/N1CCN(c2ccccc2)CC1)/c1cccs1,-2,i,11,16,-12,/,6,10
CC(=O)NC(C)c1nc2ccccc2n1CC(=O)NC(C)CCc1ccccc1 (centres undefined),1,i,2,0,/,-3,3,-2
CCn1c(C)nc2cc(C(=O)NNC(=O)[C@@H](NC(=O)c3cc(OC)cc(OC)c3)C(C)C)ccc21,/,/,2,0,-8,/,/,-21
Cc1cccc(-n2c3nc(=O)[nH]c(=O)c-3cc3c(C)nn(-c4ccccc4)c32)c1C,-2,i,-1,2,-16,-22,-1,9
c1ccc(Nc2nc(-c3ccncc3)cs2)cc1,-7,i,-6,-12,-15,/,-3,-3
O=c1cc(CN2CCCCC2)c2ccccc2o1,/,/,-1,4,6,-6,/,/
COc1ccc2nc(NC(=O)CSCC(=O)Nc3cc(C)on3)sc2c1,/,i,-3,1,/,-7,/,-14
O=S(=O)(N=S(N1CCCCC1)N1CCCCC1)c1ccccc1,11,i,3,3,-11,-31,0,-16
CC(=O)C(C(C)=O)C(c1ccccc1)c1nc2ccccc2[nH]c1=O (centres undefined),11,i,-2,-1,-30,-26,-2,-1
COc1cccc(/C=N/Nc2c(Cl)cncc2Cl)c1O,10,i,-8,-8,-8,-25,-8,27
CN(C)c1nc(SCc2ccc(Cl)cc2)nc2c1CCCC2,-2,i,-2,-4,-12,/,-1,32
CC(=O)c1ccc(N2CCN(C(=O)c3ccc4ccccc4n3)CC2)cc1,-5,i,1,4,/,6,2,-16
Cc1ccc(NC(=O)CCc2nc3ccccc3c(=O)[nH]2)cc1S(=O)(=O)N1CCOCC1,/,i,/,/,-7,6,/,6
CCCn1cnc2c(SCc3ccccc3)nc(N)nc21,/,/,3,2,-13,-6,/,/
CC(C)c1ccc(CC(=O)N2CCC2(C)C(=O)NCCC#N)cc1 (centres undefined),/,/,0,-3,-17,12,/,/
Fc1cccc(NC(=S)NCC(c2cccnc2)N2CCOCC2)c1 (centres undefined),8,i,1,1,/,4,-10,-8

# Later entries:
SMILES,PABP FP inh,Rce1 inhib,MT1-MMP act inh,MT1-MMP act inh RFP,Yeast UUG start,Env fusion inh,eIF4H inh,CSC inhib
CCN1CC(CNCc2cn(-c3ccc(OC)cc3)nc2-c2ccccc2Cl)CC1=O (centres undefined),-6,i,2,-3,/,3,22,-8
CCc1ccc(N(CC)c2ncnc3nc[nH]c23)cc1,-15,i,-11,-11,-16,55*,-3,-12
CC1=C(C(=O)OCc2ccccc2)C(c2ccc3c(c2)OCO3)NC(=O)N1CCCC(=O)O (centres undefined),/,i,1,4,-16,8,/,3
CN1/C(=C\C(=O)c2cccc(S(=O)(=O)N3CCCCC3)c2)C(C)(C)c2ccccc21,-6,i,3,3,-18,7,-2,24
O=C(COc1ccc2c(-c3ccccc3)cc(=O)oc2c1)NCC(O)c1ccccc1 (centres undefined),-11,i,2,0,-9,/,6,-2
Cc1nc2ccccc2c(-c2ccccc2)c1C(=O)c1ccccc1,-6,i,9,0,-16,?,4,27
O=C(NCc1cccs1)C1CC(=O)N(Cc2ccccc2)C1 (centres undefined),/,/,-1,6,1,-5,/,/
COc1ccc(C2=NN(C(=O)COC(=O)c3ccc(S(C)(=O)=O)c([N+](=O)[O-])c3)C(c3ccco3)C2)cc1 (centres undefined),/,/,3,-5,/,5,/,96*
Cc1ccc(OCc2nnc(SCC(=O)Nc3sc(C)c(C)c3C#N)n2C)cc1,8,i,4,0,-23,-44,2,-16
CNS(=O)(=O)c1cccc(C(=O)OC2CCOC2=O)c1 (centres undefined),16,i,-1,-3,-3,-6,10,/
CN(C)CCC(O)c1ccccc1 (centres undefined),4,i,0,1,/,-5,-12,5
O=C(Nc1cccc(S(=O)(=O)N2CCCC2)c1)c1cccnc1,-1,i,1,1,-17,4,7,/
O=C(c1ccco1)N1CCN(C(=O)c2ccc(Cn3cc(Br)cn3)o2)CC1,11,i,-6,-3,4,/,-3,-2
N=c1c2c(n(Cc3ccc(Br)cc3)c3c1CCC3)CCCC2,2,i,-44,-33,/,70*,-4,13
O=S(=O)(Nc1ccc(Cl)cc1)c1ccc(N2CCOCC2)c(NC(=S)NCCN2CCOCC2)c1,-12,i,0,-6,-8,16,-9,2
CC1(C)CC(=O)C/C(=N\NC(=O)C2CC23CCC3)C1 (centres undefined),1,/,-2,1,/,8,-4,-8
Cc1ccc2c(CN3CCC(C(N)=O)CC3)cc(=O)oc2c1C,-3,/,-1,2,-8,12,-13,-17
Cc1cc(C)nc(NC(=S)Nc2ccc(F)cc2F)c1,-4,i,5,-3,-4,-10,-1,4
O=C(Nc1ccc(Cl)cc1)C1CC=CCC1C(=O)OCC(F)(F)C(F)F (centres undefined),-10,i,0,7,-9,-78,-3,-3
CCCCN(C(=O)C1CSC2(C)CCC(=O)N12)c1c(N)n(Cc2ccccc2)c(=O)[nH]c1=O (centres undefined),/,/,-5,1,-12,-1,/,/
O=C(NCc1ccc2c(c1)OCO2)C12CN(Cc3ccccc3)CC1C(c1cccc([N+](=O)[O-])c1)=NO2 (centres undefined),2,i,-15,-10,3,27,5,9
COc1cc(/C=N/n2cnnc2)ccc1Oc1nc(Cl)ncc1F,3,i,3,2,-10,22,5,-10
NCCCCCc1nnc(SCC(N)=O)o1,1,i,0,-1,/,-8,-6,-6
Cn1c(SCC(=O)N2CCCc3ccccc32)nc2ccccc2c1=O,-2,i,-5,-27,10,/,7,6
C=C1CCN([C@H](C(=O)OCc2ccc(C)cc2)C(C)C)S(=O)(=O)c2ccccc21,-8,/,-4,1,-16,80*,2,4
COc1ccc(CN(Cc2ccc(C(=O)O)cc2)C(=S)Nc2ccccc2C)cc1OC,14,i,-1,3,-27,4,-1,-1
CC1CCN(c2c(NCc3ccc(C(=O)N4CCN(C5CCCCC5)CC4)cc3)c(=O)c2=O)CC1,6,i,-2,0,1,-9,0,-4

# Some of these compounds in order of molecular weight, highest first.
SMILES,PABP FP inh,Rce1 inhib,MT1-MMP act inh,MT1-MMP act inh RFP,Yeast UUG start,Env fusion inh,eIF4H inh,CSC inhib
O=C(c1ccco1)N1CCN(C(=O)c2ccc(Cn3cc(Br)cn3)o2)CC1,11,i,-6,-3,4,/,-3,-2
Cc1nc2ccccc2c(-c2ccccc2)c1C(=O)c1ccccc1,-6,i,9,0,-16,?,4,27
NCCCCCc1nnc(SCC(N)=O)o1,1,i,0,-1,/,-8,-6,-6

# These rows are one share of the data, so the mix of outcomes need not match the whole.
